Screens as filed in PubChem BioAssay.
NPYLR7 agonist: activates Aedes aegypti NPYLR7 receptor. HEK293T NPYLR7/Galpha15, GCaMP6s calcium fluorescence. activation, % at 10 µM. hit rate 0.15% among 270,000. AID 1259423; in the data active = activation above about 40%;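 also: 0% = vehicle and 100% = reference agonist at the receptor; some compounds past the cut are filed as inactive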
NPYLR7 agonist max-min: recorded beside NPYLR7 agonist, whose call it bears; activation, %; measured here: Max-Min RFU normalised activation; some inactives read as strong as hits;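 span of the calcium signal over five minutes; 0% = vehicle and 100% = native peptide agonist; compound fluorescence can raise it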
The depositor's hits bear a star; & = joins results of further samples.

SMILES	NPYLR7 agonist	NPYLR7 agonist max-min
CCCCc1ncc(CN2CCC(n3nccc3NC(=O)Cc3ccccc3)CC2)[nH]1	5	-1
Fc1ccc(CC2CCN(CC3CCOC3)CC2)cc1 (configuration not stated)	-3	-11
O=C(CCCc1ccccc1)N1C[C@@H]2[C@H](C1)[C@H]1CC[C@@H]2O1	7	6
Cc1ccc(C(=O)N2CCCN(c3nc4ccccc4nc3-c3ccccc3)CC2)cc1C	4	1
c1nc(N2CCN(Cc3cc4n(n3)CCNC4)CC2)c2[nH]cnc2n1	4	2
Cc1ccc2c(c1)C1(CC(=O)N(Cc3ccccc3)C1=O)C(=O)N2CCOc1cccc2c1OCCO2 (configuration not stated)	-5	-10
O=C(CSc1nnnn1-c1ccccc1)Nc1ccccc1F	0	-4
C=CCNC(=O)N1CCSC12C(=O)N(Cc1ccccc1)c1ccc(F)cc12 (configuration not stated)	10	13
Cc1noc(C)c1CN(C)C(=O)c1n[nH]c2c1CC(C)CC2 (configuration not stated)	-5	-6
CN1N=C(C(=O)N2CCN(S(=O)(=O)c3ccc(Cl)c(C(F)(F)F)c3)CC2)CCC1=O	-2	14
CCS(=O)(=O)c1ccc(NC(=O)c2ccc(Br)cc2)cc1	2	2
COc1cccc2c1OCCCN(Cc1nc(-c3ccccn3)no1)C2	18&4	13&6
CC(=O)C1=NN(c2ccc(C)cc2)C2(S1)SC(C(C)=O)=C(C)N2C (configuration not stated)	3	2
CCC(=O)N1CCCN(CCCN2C(=O)NC(C)(C)C2=O)CC1	9	5
Clc1ccc2c(NCCc3ccccc3)nc(-c3ccco3)nc2c1	-3	8
Cc1nn(-c2ccc(C(C)C)cc2)c(C)c1CCC(=O)NCCCN1CCCC1=O	1	-1
CC(C)c1cc(=O)[nH]c(-n2nc(-c3cccs3)cc2NC(=O)COc2ccc(F)cc2)n1	1	-1
CCN1CCC(O)C(C)C1C (configuration not stated)	-2	-8
Nc1ccccc1S(=O)(=O)C1CCCC1	3	2
COc1ccc(C(=O)Oc2ccc(NC3=NS(=O)(=O)c4ccccc43)cc2)cc1	3	3
CC(C)(NCC(=O)Nc1c(Cl)cccc1Cl)c1ccc(Cl)c(Cl)c1	4	3
O=C(NCc1nccs1)c1nn(CC2CC2)c2c1CN(C(=O)CC1=CCCCC1)CC2	-1	-3
CC(C)Oc1nc(-c2ccccc2F)n(-c2cccc(NC(=O)Nc3ccc(F)cc3F)c2)n1	18	25
CCCCOc1ccc(-c2c(C#N)c(N)nc(SC)c2C#N)cc1	-1	-6
Cc1cccc(NC(=O)Cn2nc(C(C)C)c3cnn(C(C)(C)C)c3c2=O)c1C	7	6

Quoted at random: two entries already listed, in no set order.
SMILES	NPYLR7 agonist	NPYLR7 agonist max-min
c1nc(N2CCN(Cc3cc4n(n3)CCNC4)CC2)c2[nH]cnc2n1	4	2
Fc1ccc(CC2CCN(CC3CCOC3)CC2)cc1 (configuration not stated)	-3	-11

The main list resumes, starting five compounds before the break.
SMILES	NPYLR7 agonist	NPYLR7 agonist max-min
CC(C)(NCC(=O)Nc1c(Cl)cccc1Cl)c1ccc(Cl)c(Cl)c1	4	3
O=C(NCc1nccs1)c1nn(CC2CC2)c2c1CN(C(=O)CC1=CCCCC1)CC2	-1	-3
CC(C)Oc1nc(-c2ccccc2F)n(-c2cccc(NC(=O)Nc3ccc(F)cc3F)c2)n1	18	25
CCCCOc1ccc(-c2c(C#N)c(N)nc(SC)c2C#N)cc1	-1	-6
Cc1cccc(NC(=O)Cn2nc(C(C)C)c3cnn(C(C)(C)C)c3c2=O)c1C	7	6
Cc1ccc(NC(=O)N(CCC(C)C)CC(=O)Nc2ccon2)cc1C	5	6
CC(=O)c1ccc(OCC(=O)Nc2sc(-c3ccccc3)c(C)c2C(=O)N2CCOCC2)cc1	0	-3
CCOc1cccc(-c2cc(NCCc3ccccn3)n3nccc3n2)c1	-3	-8
COc1ccc(N(CCc2ccccc2)C(=O)c2nccnc2N)cc1	2	-1
COCCN(Cc1cc(NC(=O)C2CCC2)ccc1N(C)C)C(=O)c1ccc(OC)cc1	6	12
COCc1cc(C)nc(OCC(=O)N/N=C\c2ccccc2[N+](=O)[O-])c1C#N	0	-3
OC1(c2ccc(Cl)cc2Cl)CC(C(Cl)(Cl)Cl)NO1 (configuration not stated)	-1	0
COCCN(CC(=O)Nc1cc(C(C)(C)C)nn1-c1ccc(C)cc1C)C(=O)Nc1ccc(SC)cc1	18	19
CCCCC(CC)CN1CN(CC(CC)CCCC)CC(C)(N)C1 (configuration not stated)	-6&-14	-11&-18
CC(C)(C)NC(=O)N(Cc1csc(COc2cc(Cl)ccc2Cl)n1)C1CC1	-11	2
O=C(OCC(=O)N1CCOC2CCCCC21)c1c[nH]cc1-c1ccc(Cl)s1 (configuration not stated)	7	4
CCCN1CCCC(CNC(=O)c2ccn(CC)n2)C1 (configuration not stated)	-5	-12
C=C(C)[C@@H]1CC[C@]2(CO)CC[C@]3(C)[C@H](CCC4[C@@]5(C)CC[C@H](O)C(C)(C)C5CC[C@]43C)C12 (some centres not stated)	-7	-16
COc1ccc(CCOC(=O)[C@@H]2CCCN2C(=O)COc2cccc(Cl)c2)cc1OC	-10	-17
CCOc1ccc(-n2c(C(CC)N(Cc3ccccc3)C(=O)Nc3ccc(C)cc3)nc3ccccc3c2=O)cc1 (configuration not stated)	17	22
CCOC(=O)c1c(C)[nH]c(C2=NNC(=NC(C)COC)SC2)c1C (configuration not stated)	-1	5
C=CCc1cccc2cc(C(=O)Nc3ccc(F)cc3)c(=O)oc12	-4	-12
CC1(C)C2CCC1(C)C(OC(=O)CSc1nc(N)cc(=O)[nH]1)C2 (configuration not stated)	1	-3
COc1ccc(NC(=O)CSc2n[nH]c(C3CC3)n2)cc1	8	6
CS(=O)c1ccc(NC(=O)c2ccc(N3CCCC3)nc2)cc1 (configuration not stated)	-3	-3
Cc1cc(C)cc(C(=O)N2CCc3c([nH]c4ccccc34)C2c2ccccn2)c1 (configuration not stated)	-2	-3
COC(=O)c1sc(N2C(=O)C(O)=C(C(=O)c3ccc(C)o3)C2c2ccc(C)cc2)nc1C (configuration not stated)	24	26
CN(CCCNC(=O)c1cccc(N)c1Nc1ccccc1)Cc1ccccc1	-1	-3
c1ccc(-c2nnc3n2NC(c2ccc4c(c2)OCO4)S3)cc1 (configuration not stated)	8	0
CCC(C)Cc1c(C)sc2[nH]c(=S)[nH]c(=O)c12 (configuration not stated)	-3	-4

A different layout for some results above.
Results follow in this order: NPYLR7 agonist | NPYLR7 agonist max-min
CC(=O)c1ccc(OCC(=O)Nc2sc(-c3ccccc3)c(C)c2C(=O)N2CCOCC2)cc1
 : 0 | -3
C=CCc1cccc2cc(C(=O)Nc3ccc(F)cc3)c(=O)oc12
 : -4 | -12
c1ccc(-c2nnc3n2NC(c2ccc4c(c2)OCO4)S3)cc1 (configuration not stated)
 : 8 | 0
O=C(OCC(=O)N1CCOC2CCCCC21)c1c[nH]cc1-c1ccc(Cl)s1 (configuration not stated)
 : 7 | 4
COc1ccc(CCOC(=O)[C@@H]2CCCN2C(=O)COc2cccc(Cl)c2)cc1OC
 : -10 | -17
CS(=O)c1ccc(NC(=O)c2ccc(N3CCCC3)nc2)cc1 (configuration not stated)
 : -3 | -3

Continuation.
SMILES	NPYLR7 agonist	NPYLR7 agonist max-min
N#CCCN(CCC#N)C(=O)CSc1nnc(-c2cccs2)n1CCC(N)=O	-1	-1
COc1cccc(CN2CCN(Cc3cc4ccccc4o3)CC2CCO)c1 (configuration not stated)	0	1
CC(=O)CC(O)(c1nc2ccccc2s1)C(F)(F)F (configuration not stated)	4&8	2&7
C=CCOCC(O)CN(Cc1cccc(C(F)(F)F)c1)CC1CC(c2ccc(F)cc2)=NO1 (configuration not stated)	-3	-2
CN(Cc1cn(C)nc1-c1ccc2c(c1)OCCO2)CC1COCCO1 (configuration not stated)	5	0
CN(c1ccccc1)N1CC(C(=O)NCCOc2ccccc2Cl)CC1=O (configuration not stated)	-6	-8
Cc1ccc(CN2CCN(c3nc4c(c(=O)[nH]c(=O)n4C)n3Cc3ccc(F)cc3)CC2)cc1	4	0
Cc1ccccc1C1c2ccsc2CCN1CCC(=O)N1CCN(C(=O)COc2ccccc2)C(C)C1 (configuration not stated)	9	-8
CC(C)(C)OC(=O)NCCC(=O)NCc1cn(-c2ccccc2)nc1-c1ccc(F)cc1	2	6
CC1CN(C2CCCCC2)c2nc3c(c(=O)n(CCc4ccccc4)c(=O)n3C)n2C1 (configuration not stated)	5	4
CCn1cc2nc(OC)c(CNC(=O)c3csc(NC)n3)cc2c1O	4	0
Cc1ccc(C(C)C)c(OCC(=O)N2CCc3sccc3C2C)c1 (configuration not stated)	4	4
CSc1ccc(C(=O)CCC(=O)NN(C)c2ccccc2)cc1	-8	-15
CCc1[nH]c2c(CNC(=O)[C@H]3[C@@H]4C=C[C@@]5(CN(C)C(=O)[C@@H]35)O4)cc(C)cc2c1C	-6	-6
CCCCn1c(CN2CCC(COC)C2)cnc1S(=O)(=O)CC1CCC1 (configuration not stated)	23	10
CCCCCCCCCC[Si](C)(C)CCC(=O)NC(Cc1ccc(C)cc1)c1ccccc1 (configuration not stated)	5	-13
Cc1ccc(Nc2oc3c(c2-c2ccccc2)c(=O)n(C)c(=O)n3C)c(C)c1	-3	-5
CCOC(Cn1cc(C(=O)N2CCOc3ccccc32)nn1)OCC	1	19
Cc1cccc2c(=O)c(C(=O)N3CCOC(C(F)(F)F)C3)c[nH]c12 (configuration not stated)	0	-9
O=C(CCn1c(CO)nc2ccccc21)N1CCC2(CCNCC2)CC1	6	4
CC(C)[C@H](NC(=O)c1cccc(S(=O)(=O)N2CCOCC2)c1)C(=O)OCC(=O)c1ccccc1	-3	-6
CC1CCc2sc(C(=O)NN=CC3CCCCC3)cc2C1 (configuration not stated)	0	-1
O=C(CSc1nnc(-c2ccccc2Cl)n1-c1ccccc1F)N1CCOCC1	3	7
CCOC(=O)c1cc(-c2ccc(N3CCN(C(=O)c4cc(C)oc4C)CC3)cc2)n(-c2cccc(F)c2)n1	18	11
O=C(Cc1csc(Cc2ccccc2)n1)Nc1ccc2oc(=O)[nH]c2c1	7	2

As a short view, some entries already given:
SMILES	NPYLR7 agonist	NPYLR7 agonist max-min
N#CCCN(CCC#N)C(=O)CSc1nnc(-c2cccs2)n1CCC(N)=O	-1	-1
COc1cccc(CN2CCN(Cc3cc4ccccc4o3)CC2CCO)c1 (configuration not stated)	0	1

Following part:
SMILES	NPYLR7 agonist	NPYLR7 agonist max-min
COc1ccc(OC)c(S(=O)(=O)N2CCN(C(=O)CCCc3cccs3)CC2)c1	5	9
C=CC[C@@H]1CC=C[C@@H](c2ccccc2)N1C(=O)CCC(=O)OC	15	7
CCNC(=O)c1nn(-c2ccc(C(F)(F)F)cc2)c(=O)n(Cc2cccc(Cl)c2)c1=O	3	4
CN(Cc1ccccc1Br)c1cnc2ccccc2n1	5	2
Cc1nc(C)c(CN2CCC(C(=O)Nc3ccc(-n4cccn4)cc3)CC2)nc1C	5	2
CC1(C)CC(=O)C2=C(C1)OC(=N)C(C#N)C2c1ccncc1 (configuration not stated)	-18	-26
Cc1ccccc1C(=O)Nc1nn(C)c2c1CC(C)C(=O)N2 (configuration not stated)	-14	-17
CC(C)C1CN(C(=O)c2cnc3ccccn23)CCCN1CC1CC1 (configuration not stated)	3	0
Cc1ccc(N=NN(CC(O)C(O)C(O)CO)c2ccc(C)c(C)c2)cc1C (configuration not stated)	-1	-1
COc1cccc(/C=C2\SC(=S)N(CCC(=O)NNC(=O)c3cccc(Cl)c3)C2=O)c1	1	-8
O=C(N[C@H]1COC[C@@H]1N1CCCCC1)c1ccc(-n2cnnn2)cc1	22	10
COC1CC(C2C(C(=O)c3cccs3)=C(O)C(=O)N2c2nnc(SCc3ccccc3)s2)=CCC1=O (configuration not stated)	-4	-7
COc1ccc(CN2N=NC3C(=O)N(c4ccc(OC)c(Cl)c4)C(=O)C32)cc1 (configuration not stated)	-6	-8
CCOC(=O)c1ccc2c(c1)nc(SCC(=O)NCc1cccs1)n2Cc1ccc(C(F)(F)F)cc1	4	0
O=c1cc(Cl)c2ccccc2o1	5	4
C#CCOc1c(Cl)cc(C=C(C#N)C#N)cc1OC	8	12
Cc1nn2c(NCCN(C)C)c3c(nc2c1-c1ccccc1)CCCC3	3	9
COC(=O)CN(C)C(=O)C1CCC(=O)N(C2CCCC2)C1 (configuration not stated)	0	-3
Cc1cccn2c(=O)nc(SCc3cccc([N+](=O)[O-])c3)nc12	2	3
CCOC(=O)c1c(C)nn(-c2ccc(C(=O)NCC(c3ccccc3)c3ccccc3)cc2)c1C	-8	-12
COc1cccc(C2CC(c3ccc(Br)cc3)=NN2C(C)=O)c1OC (configuration not stated)	-4	-6
CC(=O)C(C)Sc1nnc(-c2ccc(Cl)cc2)n1CC(=O)O (configuration not stated)	3	-3
O=C(c1ccc(Cl)c([N+](=O)[O-])c1)c1ccc(Cl)c([N+](=O)[O-])c1	7	4
Cc1nnsc1CN(C)C(=O)COc1ccc(F)cc1	0	1
CCc1[nH]nc(NC(=O)Cc2ccc(C)nc2)c1Br	-20	-24
COC(=O)C[C@](O)(CCCC(C)(C)O)C(=O)O[C@@H]1C(OC)=C[C@]23CCCN2CCc2cc4c(cc2[C@H]13)OCO4	-1	-2
Cc1cccc(C)c1OCc1cc(C(=O)NCCN2CCNC2=O)no1	11	-8
CCS(=O)(=O)N1CCC(C(=O)Nc2ccccc2SC(F)F)CC1	-1	23
Cc1cc(C(=O)N2CCC(Cc3cccc(C(=O)O)c3)C2)n(C)n1 (configuration not stated)	4	4
Cc1cc(C2(O)CCCCC2C)cc(C)c1C (configuration not stated)	11	8

Not all compounds are listed (hit frequency here may not be typical).
